High-throughput results: PubChem BioAssay, National Center for Advancing Translational Sciences (NCATS)
D1 agonist = Allosteric Agonists of the Human D1 Dopamine Receptor: qHTS. AID 504660, 2011. HEK293 T-REx D1 cells, calcium flux, agonist mode. activation, % at 2 µM. 360,000 compounds, 1% hits; note: 0% is about no effect
Target sequence (P21728 whole entry, looked up): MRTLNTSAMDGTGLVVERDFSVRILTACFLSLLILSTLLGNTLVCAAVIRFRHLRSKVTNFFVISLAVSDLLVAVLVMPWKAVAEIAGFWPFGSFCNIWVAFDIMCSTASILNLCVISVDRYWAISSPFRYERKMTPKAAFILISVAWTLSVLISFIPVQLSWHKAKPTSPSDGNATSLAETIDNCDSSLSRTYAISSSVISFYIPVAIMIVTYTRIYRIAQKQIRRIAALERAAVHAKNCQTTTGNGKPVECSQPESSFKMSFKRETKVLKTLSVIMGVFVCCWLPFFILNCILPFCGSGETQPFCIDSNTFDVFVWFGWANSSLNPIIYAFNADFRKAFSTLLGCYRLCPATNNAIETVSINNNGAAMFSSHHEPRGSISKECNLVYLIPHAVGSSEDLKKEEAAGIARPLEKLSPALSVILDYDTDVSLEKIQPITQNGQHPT
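Agonism was scored from calcium flux recorded over 180 s (1 read/s) after pintool compound addition, following a 10-cycle baseline. Cells were inducible force-coupled HEK293 TREx D1, plated overnight at 30 C and loaded with no-wash calcium dye.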
D1 antagonist = Antagonist of Human D 1 Dopamine Receptor: qHTS | D(1A) dopamine receptor (Homo sapiens), P21728 | 360,000 compounds, 3.2% hits | AID 504652, 2011 | HEK293 TREx D1 cells, calcium flux, dopamine EC80; hits give low values | activity change, negative = inhibition, % at 10 µM; in the data active = activity change below about -30%; note: % is set by controls: 0 for no effect and ±100 for the full control effect
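Tetracycline-induced HEK293 T-REx cells with force-coupled D1 receptor were loaded with a no-wash calcium dye. Compound was added after a 10 s baseline and read kinetically for 180 s; EC80 dopamine was then added and calcium flux followed another 180 s.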
D2 PAM = HTS Assay for Positive Allosteric Modulators of the Human D2 Dopamine Receptor: Primary Screen for Potentiators. AID 485347, 2010. D(2) dopamine receptor (Homo sapiens), P14416. potentiation, % at 10 µM. 340,000 compounds, 0.34% hits. HEK293 T-REx D2, calcium flux, EC20 dopamine potentiation;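 active = potentiation over 3 SD above the plate norm, cut at about 30% in these data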; note: 0% is about no effect
Target sequence (P14416 whole entry, looked up): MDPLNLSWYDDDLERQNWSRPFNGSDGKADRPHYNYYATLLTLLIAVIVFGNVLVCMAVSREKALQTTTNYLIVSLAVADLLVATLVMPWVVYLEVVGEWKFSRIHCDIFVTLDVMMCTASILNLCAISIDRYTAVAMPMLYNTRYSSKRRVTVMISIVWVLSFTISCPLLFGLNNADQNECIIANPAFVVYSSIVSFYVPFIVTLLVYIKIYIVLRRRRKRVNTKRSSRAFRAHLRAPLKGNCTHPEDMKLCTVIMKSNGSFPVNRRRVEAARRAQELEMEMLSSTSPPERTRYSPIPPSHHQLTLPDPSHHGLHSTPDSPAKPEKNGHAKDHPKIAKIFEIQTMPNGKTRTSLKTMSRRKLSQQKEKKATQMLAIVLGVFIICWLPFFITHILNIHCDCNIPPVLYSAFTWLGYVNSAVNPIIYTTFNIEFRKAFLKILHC
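Primary screen. Calcium kinetics in induced HEK293 T-REx D2 cells: compound pre-addition 180 s, EC20 dopamine, 180 s more.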
TRHR ag = qHTS for Small Molecule Agonists and Allosteric Enhancers of Human TRH Receptor: Primary Screen for Agonists. TRHR cells, calcium flux fluo-8, FDSS agonist mode. activation, % at 2 µM. 360,000 compounds, 0.18% hits. AID 493084, 2011; note: 0% is about no effect
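Agonist-mode FDSS calcium read (Ex 480/Em 530, 1 s cycles) in 1536-well TRHR cells with fluo-8 dye, after 10-cycle baseline and 23 nL compound addition; TRH at EC20 (10 nM final) added afterwards for the enhancer phase.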
TRHR enhancer = qHTS for Small Molecule Agonists and Allosteric Enhancers of Human TRH Receptor: Primary Screen for Enhancers. enhancement, % at 2 µM. AID 493056, 2011. 360,000 compounds, 0.66% hits. Thyrotropin-releasing hormone receptor (Homo sapiens), P34981. TRHR cells, fluo-8 calcium fluorescence, EC20 TRH enhancement; in the data active = enhancement above about 30%; note: 0% is about no effect
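Enhancer read-out: after compound pinning and an initial kinetic agonist-mode read, an EC20 of TRH (10 nM final) was injected and fluo-8 calcium signal (Ex 480/Em 530) followed at 1 s/cycle for 100 cycles in TRHR-expressing cells.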
Anesthetic bind = qHTS Assay for Identification of Novel General Anesthetics; apoferritin/1-aminoanthracene competitive binding, fluorescence; Potency, µM (doses to about 77.5 µM), for inactives: at the highest dose activity change, negative = displacement, hits mostly inhibitors; 350,000 compounds, 0.074% hits; active = well fitted inhibition curve with a large enough effect; inconclusive = small, poorly fitted or top-dose-only effect; inactive = no such curve, though single readings can be large or run the other way; note: potency is the fitted concentration of half-maximal effect; % is set by controls: 0 for no effect and ±100 for the full control effect; nearly all actives have a fitted effect of over 20% in size
Target sequence (P02791 2-175 limits assumed): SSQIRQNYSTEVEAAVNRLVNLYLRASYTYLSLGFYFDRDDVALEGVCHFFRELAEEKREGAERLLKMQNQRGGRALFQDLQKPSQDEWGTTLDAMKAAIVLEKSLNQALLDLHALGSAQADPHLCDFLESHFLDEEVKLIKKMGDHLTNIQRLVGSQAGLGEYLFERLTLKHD
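In PBS, apoferritin at 10 uM is loaded with 1-AMA from a 50% saturated solution. After 10 min of compound exposure at ambient temperature, reduced 535 nm fluorescence indicates probe displacement.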
D1 potentiator = Potentiators of Human D1 Dopamine Receptor: qHTS | D(1A) dopamine receptor (Homo sapiens), P21728 | HEK293 TREx D1 cells, calcium flux, dopamine EC20 potentiation | AID 504651, 2011 | 360,000 compounds, 0.036% hits | potentiation, % at 10 µM; in the data active = potentiation above about 30%; note: 0% is about no effect
An asterisk follows results filed as active; u = inconclusive; x = no result given; [ ] = remark or other dose. Cut-off read from the data, not from the text of the source, unless noted: active = activation above about 30%; inactive = the rest.

SMILES	D1 agonist	D1 antagonist	D2 PAM	TRHR ag	TRHR enhancer	Anesthetic bind	D1 potentiator
O=C(Nc1ccc2c(c1)OCCO2)c1cc(-c2ccccc2)nc2ccccc12	0	8	-2	-0.1	-1	-10%	-3
C=CCn1c(=S)[nH]c2sc3c(c2c1=O)CCCC3	-1	-24	7	-0.4	-11	-3%	-13
Cc1ccc(-n2c(=O)[nH]c3c(oc4ccccc43)c2=O)cc1	3	12	0	1.2	4	-1%	0
O=c1c2oc3ccccc3c2[nH]c(=S)n1-c1ccccc1	1	-1	1	-0.6	8	4%	-3
Cc1ccc(N(NC(=O)C(C)(C)O)C(=O)c2ccccc2)cc1C	2	-18	-1	-0.2	15	-6%	-5
CCCOc1ccc(C2C(C(=O)c3cc4ccccc4o3)=C(O)C(=O)N2c2cc(C)on2)cc1OC (stereo unspecified)	21	-7	7	5.2	5	8%	7
CCOc1ccc(NC(=O)CSc2nnc3c(C)cc4ccccc4n23)cc1	1	6	10	-1.0	3	u	-3
COCCn1c(=NC(=O)CCS(=O)(=O)c2ccccc2)sc2cc(C)ccc21	3	2	-1	-0.4	14	-3%	0
O=C1Nc2cc(C(=O)N3CCc4ccccc4C3)ccc2S/C1=C\c1ccccc1	5	-1	8	1.1	0	-13%	-1
CCn1c(COc2ccc(Cl)cc2)nnc1SCC(=O)Nc1ccc2c(c1)OCCO2	0	6	7	-0.2	5	-18%	-1
C=CCn1c(CCNC(=O)c2cccs2)nnc1SCC(=O)Nc1cccc(C(C)=O)c1	3	21	7	-0.5	-3	-14%	10
COc1cc([N+](=O)[O-])ccc1NC(=O)NCc1ccccn1	6	-5	-10	0.5	-6	-14%	0
Cc1cc(C)cc(-n2ccn(CC(=O)c3ccc(F)cc3)c(=O)c2=O)c1	2	2	-9	0.2	-4	-9%	-4
COc1cccc(C(C(=O)NC2CCCCC2)N(C(=O)c2ccccn2)c2cccnc2)c1 (stereo unspecified)	0	17	5	0.6	-2	-5%	-1
Cc1cc(C)cc(-n2ccn(Cc3ccc(F)cc3)c(=O)c2=O)c1	9	-22	5	-0.5	10	2%	-3
COC(=O)c1ccc(N2CCN(C)CC2)c(NC(=O)c2ccc(Br)o2)c1	4	-13	-3	-0.3	2	-14%	-8
O=C(CSc1ncc2c(n1)-c1ccccc1N(Cc1ccccc1)S2(=O)=O)Nc1ccccc1	1	-12	11	0.8	-5	-4%	0
Cc1nnc(N2C(=O)C(=O)/C(=C(\O)c3ccc4c(c3)CC(C)O4)C2c2ccccc2)s1 (stereo unspecified)	3	4	-7	6.1	-13	-17%	4
COc1cccc2cc(C(=O)CS(=O)(=O)c3ccc(Cl)cc3)c(=O)oc12	3	34	-2	0.8	34*	-21%	2
COc1ccc(CNC(=O)c2cc(-c3ccc(Br)s3)nc3ccccc23)c(OC)c1	4	7	-1	1.2	3	-12%	5
Cc1ccc(CNC(=O)Cn2ccn(-c3cc(C)cc(C)c3)c(=O)c2=O)cc1	0	7	10	-0.6	2	-9%	-3
CC1CCN(S(=O)(=O)c2cc(F)ccc2CN2C(=O)c3cccnc3C2=O)CC1	8	9	10	-0.2	-4	u	-6
CSc1nc(Oc2ccc3ccccc3c2)c2sccc2n1	16	4	-9	1.0	0	5%	2
COc1cc(C)c(Cl)c(C)c1S(=O)(=O)NCc1ccc2c(c1)OCO2	3	-2	-3	-0.1	-14	1%	-2

A run of entries taken from the entries so far, for reference:
SMILES	D1 agonist	D1 antagonist	D2 PAM	TRHR ag	TRHR enhancer	Anesthetic bind	D1 potentiator
COc1cc([N+](=O)[O-])ccc1NC(=O)NCc1ccccn1	6	-5	-10	0.5	-6	-14%	0
Cc1cc(C)cc(-n2ccn(CC(=O)c3ccc(F)cc3)c(=O)c2=O)c1	2	2	-9	0.2	-4	-9%	-4
COc1cccc(C(C(=O)NC2CCCCC2)N(C(=O)c2ccccn2)c2cccnc2)c1 (stereo unspecified)	0	17	5	0.6	-2	-5%	-1
Cc1cc(C)cc(-n2ccn(Cc3ccc(F)cc3)c(=O)c2=O)c1	9	-22	5	-0.5	10	2%	-3
COC(=O)c1ccc(N2CCN(C)CC2)c(NC(=O)c2ccc(Br)o2)c1	4	-13	-3	-0.3	2	-14%	-8
O=C(CSc1ncc2c(n1)-c1ccccc1N(Cc1ccccc1)S2(=O)=O)Nc1ccccc1	1	-12	11	0.8	-5	-4%	0
Cc1nnc(N2C(=O)C(=O)/C(=C(\O)c3ccc4c(c3)CC(C)O4)C2c2ccccc2)s1 (stereo unspecified)	3	4	-7	6.1	-13	-17%	4
COc1cccc2cc(C(=O)CS(=O)(=O)c3ccc(Cl)cc3)c(=O)oc12	3	34	-2	0.8	34*	-21%	2
COc1ccc(CNC(=O)c2cc(-c3ccc(Br)s3)nc3ccccc23)c(OC)c1	4	7	-1	1.2	3	-12%	5
Cc1ccc(CNC(=O)Cn2ccn(-c3cc(C)cc(C)c3)c(=O)c2=O)cc1	0	7	10	-0.6	2	-9%	-3
CC1CCN(S(=O)(=O)c2cc(F)ccc2CN2C(=O)c3cccnc3C2=O)CC1	8	9	10	-0.2	-4	u	-6
CSc1nc(Oc2ccc3ccccc3c2)c2sccc2n1	16	4	-9	1.0	0	5%	2
COc1cc(C)c(Cl)c(C)c1S(=O)(=O)NCc1ccc2c(c1)OCO2	3	-2	-3	-0.1	-14	1%	-2

Other entries follow.
SMILES	D1 agonist	D1 antagonist	D2 PAM	TRHR ag	TRHR enhancer	Anesthetic bind	D1 potentiator
COc1ccc(-c2nnc3ccc(SCC(N)=O)nn23)cc1OC	2	3	7	0.3	0	-4%	-5
Cc1cccc(N2C(=O)C(O)=C(C(=O)c3cccs3)C2c2ccccc2)n1 (stereo unspecified)	1	2	x	0.2	-2	-7%	-3
CCOc1ccc(C(=O)Nc2ccc(Cl)c(-c3nc4cc(C)cc(C)c4o3)c2)cc1	6	2	-11	0.2	1	-9%	2
Cc1c(C(=O)NCc2ccc(OC(C)C)cc2)sc2ncnc(N(C)C3CCCCC3)c12	6	-10	3	-0.1	1	-12%	-3
COc1cccc(NC(=O)c2cc([N+](=O)[O-])ccc2NC(=O)CNCC2CCCO2)c1 (stereo unspecified)	0	-6	-10	-2.1	-5	-12%	1
CCOc1ccccc1-c1cc(C(=O)N/N=C/c2ccc3c(c2)OCO3)c2ccccc2n1	3	-13	-8	0.0	-13	-11%	-7
Cc1ccc(C2C(C(=O)c3cc4ccccc4o3)=C(O)C(=O)N2c2cc(C)on2)cc1 (stereo unspecified)	9	5	6	-0.2	3	-8%	2
Cc1ccc(C2=NNC(C(O)C(O)C(O)C(C)O)S2)cc1 (stereo unspecified)	2	14	-3	0.3	3	-15%	-3
CN(Cc1ccccc1)C(=O)c1ccc2c(c1)OCO2	-2	-10	16	0.2	0	-12%	0
COc1ccc(Oc2nccc(-c3ccc(F)cc3)c2C#N)cc1	2	5	13	-0.5	-9	-10%	-3
O=c1c2oc3ccccc3c2n(Cc2ccccc2)c(=O)n1Cc1ccco1	7	8	4	1.3	-5	3%	-5
O=C(COC(=O)c1ccc(NS(=O)(=O)c2ccc3c(c2)OCCO3)cc1)NC1CCS(=O)(=O)C1 (stereo unspecified)	3	-1	2	-0.1	2	-9%	1
COc1cc2[nH]c(=O)c(C(=O)NCCCN3CCOCC3)c(O)c2cc1OC	1	-9	-12	-1.0	-2	-8%	-4
Cc1c(C(=O)Nc2ccccc2)sc2ncn(CC(=O)N3CCCCC3)c(=O)c12	4	-10	x	0.5	-3	2%	-7
Cc1nn(C(C)C(=O)O)c2ccccc12 (stereo unspecified)	0	7	3	0.5	12	-12%	2
O=C(Nc1ccc(Br)cn1)c1cccc(C(=O)Nc2ccc(Br)cn2)c1	1	-1	5	1.8	-3	-7%	0
CN(C)S(=O)(=O)c1cccc(NC(=O)CSc2ncnc3ccccc23)c1	11	-15	x	-0.4	-4	-12%	-3
CCn1c(CN2CCOCC2)nnc1SCC(=O)Nc1ccc(C)cc1	1	-22	-6	0.6	1	-1%	-9
CC1=CC(C)(C)Nc2ccc(OC(=O)C(C)N3C(=O)c4ccccc4C3=O)cc21 (stereo unspecified)	2	6	4	-0.2	-6	-19%	-6
O=C1OC(c2ccc(F)cc2)=N/C1=C\c1ccc(Br)o1	1	2	-6	0.7	-3	-2%	-3
Cc1ccc(Cn2c(=O)n(Cc3ccco3)c(=O)c3ccccc32)cc1	8	3	7	0.8	-8	-11%	-5
CC(=O)c1cccc(NC(=O)Cn2cnc3c2c(=O)n(C)c(=O)n3C)c1	-1	7	-10	1.4	-5	-3%	-1
Cn1c(-c2ccc3c(c2)OCO3)cnc1NCc1cccc(Cl)c1	3	-14	1	0.2	0	u	0
CCc1ccc(-c2ccc(SCC(=O)Nc3nnc(C)s3)nn2)cc1	-2	-13	-8	1.8	-2	-14%	-2
CCn1c(Cc2ccccc2)nnc1SCC(=O)Nc1ccc(C)cc1	-1	3	-12	-1.2	2	-20%	-1
N#Cc1c(C(F)(F)F)cc(-c2cccs2)nc1SCC(=O)Nc1cccc(Br)c1	184*	-16	7	30*	15	136%[activator]	4
CCC(=O)N(CCC(Cc1ccccc1)c1ccco1)Cc1ccco1 (stereo unspecified)	8	-18	2	-1.4	-11	-16%	-3
CCOc1ccc(CNC(=O)CSc2c3c(nc4ccc(Cl)cc24)CCCC3)cc1	19	17	14	-0.5	-12	u	1
O=C(CSc1nncn2c1cc1sccc12)Nc1ccc(Br)cc1F	2	-6	-9	0.1	8	-5%	-2
Cn1nc(C(=O)OCC(=O)N2CCc3ccccc32)c2ccccc2c1=O	-1	3	32*	-1.7	-2	0%	-6
O=C(C1=C(O)C(=O)N(CC2CCCO2)C1c1ccccc1)c1ccco1 (stereo unspecified)	1	-6	1	0.0	3	-2%	12
CCCCn1c(SCC(=O)Nc2cc(C)on2)nc2ccccc2c1=O	2	10	-2	0.0	1	6%	-3
COc1ccccc1NC(=S)N1CCc2cc(OC)c(OC)cc2C1	1	7	11	0.0	2	0%	-2
Cc1c(C(=O)Nc2ccccc2F)sc2ncn(CC(=O)N3CCOCC3)c(=O)c12	2	10	-8	0.6	-2	-9%	-3
COc1cc2[nH]c(=S)n(CCN3CCOCC3)c(=O)c2cc1OC	0	3	0	0.0	-1	-3%	1
O=C(O)c1cc2ccc3ccccc3c2oc1=O	2	5	12	-0.1	4	419%[activator]	3
FC(F)(F)c1ccc(N2CCN(c3cc(-c4ccccc4)nc4ncnn34)CC2)nc1	1	-13	-3	0.5	-5	-14%	-5

Pulled one by one from above:
SMILES	D1 agonist	D1 antagonist	D2 PAM	TRHR ag	TRHR enhancer	Anesthetic bind	D1 potentiator
FC(F)(F)c1ccc(N2CCN(c3cc(-c4ccccc4)nc4ncnn34)CC2)nc1	1	-13	-3	0.5	-5	-14%	-5
CCC(=O)N(CCC(Cc1ccccc1)c1ccco1)Cc1ccco1 (stereo unspecified)	8	-18	2	-1.4	-11	-16%	-3

A portion of the library, so the mix of outcomes need not match the whole.
